N370S GC mod: qHTS Assay for Inhibitors and Activators of N370S glucocerebrosidase as a Potential Chaperone Treatment of Gaucher Disease; N370S GC spleen homogenate, 4MU-glucoside fluorescence; 330,000 tested, 0.092% active; AID 2101, 2009; Potency, µM (doses to about 59.4 µM), for the others: top-dose activity change, negative = inhibition, actives largely listed as inhibitors;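 further: 0% = full enzyme activity and -100% = no enzyme basal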
KAT2A inh: qHTS Assay for Inhibitors of GCN5L2. GCN5L2 HAT assay, ThioGlo1 CoA-SH fluorescence. Potency, µM (titrated, usually from 58.9 µM), inactives show at the top dose activity change, negative = inhibition, most hits filed as inhibitors. 390,000 tested, 0.21% active. AID 504327, 2011
Target sequence (Q92830 whole entry, looked up): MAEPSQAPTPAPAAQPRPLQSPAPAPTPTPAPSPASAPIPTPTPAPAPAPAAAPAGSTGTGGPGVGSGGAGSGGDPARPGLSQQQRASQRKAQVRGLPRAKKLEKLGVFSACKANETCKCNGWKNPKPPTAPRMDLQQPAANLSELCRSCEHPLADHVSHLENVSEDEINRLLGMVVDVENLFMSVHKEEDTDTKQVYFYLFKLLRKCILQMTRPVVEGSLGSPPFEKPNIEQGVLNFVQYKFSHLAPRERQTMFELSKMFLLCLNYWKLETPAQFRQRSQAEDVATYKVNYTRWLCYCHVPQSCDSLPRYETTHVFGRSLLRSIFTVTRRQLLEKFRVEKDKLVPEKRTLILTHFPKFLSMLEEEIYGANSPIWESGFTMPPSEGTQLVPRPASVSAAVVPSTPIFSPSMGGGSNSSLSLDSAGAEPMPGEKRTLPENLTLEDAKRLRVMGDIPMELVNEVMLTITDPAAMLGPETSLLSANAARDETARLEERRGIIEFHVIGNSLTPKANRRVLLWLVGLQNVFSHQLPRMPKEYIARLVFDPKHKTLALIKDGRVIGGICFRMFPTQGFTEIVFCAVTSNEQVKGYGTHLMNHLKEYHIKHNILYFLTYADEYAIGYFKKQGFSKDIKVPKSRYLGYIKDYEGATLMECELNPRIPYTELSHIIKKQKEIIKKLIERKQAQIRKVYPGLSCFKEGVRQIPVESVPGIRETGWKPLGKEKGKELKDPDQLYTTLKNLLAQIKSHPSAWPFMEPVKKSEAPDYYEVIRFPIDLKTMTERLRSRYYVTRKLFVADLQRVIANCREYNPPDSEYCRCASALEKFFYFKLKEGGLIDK
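Compounds, pin-transferred from DMSO stocks, meet 20nM GCN5L2 for 15 min before the reaction begins with H3(1-25) peptide (75uM) and acetyl-CoA (70uM). Thiol-reactive ThioGlo1 reports CoA release over 20 min at room temperature.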
* marks the source's active call; other numbers are inactive results; u = inconclusive; x = no result given; & = joins results of further samples. The call rests on the fitted dose curve; in most records, active means well fitted curve in the direction sought with a large enough effect; inconclusive means small, poorly fitted or top-dose-only effect, or another doubt; inactive means no such curve, though single readings can be large; an effect the other way counts as inactive or inconclusive. Unless noted, on the % scale 0 is the no-effect control and ±100 the full control effect; potency means the concentration at half of the fitted maximal effect. An excerpt; most or all hits stand in other tables.

SMILES	N370S GC mod	KAT2A inh
CCOc1ccc(S(=O)(=O)N2CCN(C(=O)c3oc4ccc(OC)cc4c3C)CC2)cc1	-2%	-9%
Oc1c(Cl)cc(Cl)cc1CNc1nccs1	-1%	1%
O=C(O)Cc1c(C(=O)O)nnn1-c1ccc(Cl)cc1Cl	4%	-1%
CC(NC(=O)Cc1cccs1)c1ccccc1 (stereo not given)	8%	0%
CC1(c2ccccc2)NC(=O)N(CC#N)C1=O (stereo not given)	-4%	-11%
O=C(Cc1cccs1)N1CCN(c2nc(-c3ccc(Cl)cc3)cs2)CC1	-7%	-10%
Cc1c(NC(=O)C(C)OC(=O)CCOc2ccccc2)c(=O)n(-c2ccccc2)n1C (stereo not given)	-6%	2%
O=C(NC1CCCC1)c1cc(-c2ccc(Cl)cc2)on1	-1%	-5%
O=C(N/N=C/c1cccc(OC(=O)c2cccc(Br)c2)c1)c1ccncc1	-16%	-5%
c1ccc(-n2cnc3cc(NCc4ccncc4)ccc32)cc1	-11%	11%
O=C1CC(N2CCN(C/C=C/c3ccccc3)CC2)C(=O)N1CCc1ccccc1 (stereo not given)	-4%	1%
Cc1ccc(C(=O)Nc2cccnc2Cl)cc1Cl	5%	-4%
CCOc1ccccc1N(CC(=O)NCCOC)C(=O)CCC(=O)Nc1ccccn1	18%	1%
CCOc1ccc(OCC(O)CNC2CCN(Cc3ccccc3)CC2)cc1 (stereo not given)	-6%	-6%
CC1C(=NO)C(C)C(c2ccc(N(C)C)cc2)NC1c1ccc(N(C)C)cc1 (stereo not given)	-5%	-12%
CC(=O)N1CCN(S(=O)(=O)c2cccc(C(=O)NC3CCCc4ccccc43)c2)CC1 (stereo not given)	1%	1%
Cc1cc(C)nc(/N=C(\N)Nc2ccccc2-c2ccccc2)n1	-9%	-4%
CCN(CC)S(=O)(=O)c1cc(C(=O)Nc2cccnc2)ccc1Cl	13%	0%
COC(=O)c1sc(S(=O)(=O)N2CCC(C)CC2)c(C(=O)OC)c1C	16%	-4%
CC(C)C(NC(=O)c1ccccc1)C(=O)NCCc1ccccc1 (stereo not given)	-11%	-6%

Single records, as listed above. Order of screens: N370S GC mod, KAT2A inh
CC1C(=NO)C(C)C(c2ccc(N(C)C)cc2)NC1c1ccc(N(C)C)cc1 (stereo not given) is entered as -5%, -12%
CC(=O)N1CCN(S(=O)(=O)c2cccc(C(=O)NC3CCCc4ccccc43)c2)CC1 (stereo not given) is entered as 1%, 1%

Later entries:
SMILES	N370S GC mod	KAT2A inh
CCOc1ccccc1N/C(=C(/C(Cl)=C(Cl)Cl)[N+](=O)[O-])n1cncn1	8%	-8%
CC(=O)Nc1ccc(C(=O)CN2C(=O)NC3(CCCc4ccccc43)C2=O)c(F)c1 (stereo not given)	x	-5%
O=c1ccc(Cc2ccccn2)n[nH]1	4%	-2%
O=C(O)c1cccc(N2C(=O)c3cccnc3C2=O)c1	5%	x
COc1ccc(C(=O)/C=C/c2ccsc2)cc1CSCC(=O)O	5%	-11%
CCNC(=S)NS(=O)(=O)c1ccc(CC)cc1	2%	-3%
CCCSc1nsc(SCCC)c1C(N)=O	10%	-2%
CCC(Cc1ccccc1)NS(=O)(=O)c1c(C)nc2scc(C)n2c1=O (stereo not given)	-13%	-5%
CC(C)(C)C(=O)Nc1ccc2c(c1)OCCOCCOc1cc(NC(=O)C(C)(C)C)ccc1OCCOCCO2	25%	-3%
COc1cc(NC(=O)CCS(=O)(=O)c2ccc3nc(C)sc3c2)cc(OC)c1OC	-12%	-2%
CCN(CC(=O)NC(=O)NCc1ccccc1)Cc1ccccc1	0%	-1%
COc1ccc([C@@H]2Sc3ccccc3N(CCN(C)C)C(=O)[C@@H]2OC(C)=O)cc1	u	u
O=C(OCc1cc(Cl)ccc1OC(F)F)c1cccnc1	6%	-7%
Cc1cccc2cc(C#N)c(NCCNS(=O)(=O)c3ccccc3)nc12	2%	0%
O=C(c1cc(Br)ccc1OC(F)F)N1CCN2CCCC2C1 (stereo not given)	x	-4%
CC(=O)c1ccc(NC(=O)C2=CC(c3cccs3)=NS(=O)(=O)N2C)cc1	-5%	-13%&-3%
O=c1[nH]c(CN2CCCC2)nc2sc3c(c12)CCC3	-11%	-2%
O=C(CCSc1nc(-c2ccc3c(c2)OCO3)cc(C(F)(F)F)n1)NCc1ccco1	5%	-4%
Cc1sc2nc(CSc3ccccc3)nc(N3CCC(C(N)=O)CC3)c2c1C	-12%	-5%
CCc1ccc(NC(=S)N(CCC(C)C)C2CCN(C(C)=O)CC2)cc1	1%	1%
Cc1ccc(S(=O)(=O)c2nnn3c2nc(N2CCCCC2)c2ccccc23)cc1	5%	-12%
Cc1ccc(C(=O)C(C)Oc2ccc3ccc(=O)oc3c2)cc1 (stereo not given)	23%	-8%
O=C(COc1ccccc1)Nc1cc(Cl)ccc1Cl	2%	-1%
COC(=O)c1ccc(NC(=S)NCC2CC2)cc1	8%	-2%
COc1cc(C(=O)NCc2nnc(SCC(=O)Nc3nc4ccc(C)cc4s3)o2)cc(OC)c1OC	-11%	-15%
CCC(C)NC(=O)c1cnn(-c2cccc(F)c2)c1-n1cccc1 (stereo not given)	x	-11%
COCCNS(=O)(=O)c1cccc2cccnc12	3%	-4%
COC(=O)CN1C(=S)N(C)C(=O)/C1=C/c1cccs1	-14%	-2%
Cc1cccc(-n2cnc(C(=O)NNC(=S)Nc3ccccc3)c2)n1	-3%	2%
CCn1c(C)c(C)c2cc(C(=O)N3CCCC3)ccc21	1%	-2%
COc1ccc(C2CC(=O)C3=C(C2)Nc2ccccc2NC3c2coc3ccccc3c2=O)cc1OC (stereo not given)	0%	-3%
COc1cc(OC)c(NC(=O)CS(=O)(=O)Cc2nc(-c3ccc(C)cc3)oc2C)cc1Cl	21%	-6%
CCOc1ccccc1NC(=O)C1CCN(S(=O)(=O)c2ccc3[nH]c(=O)oc3c2)CC1	x	-4%
CC1CCc2nc(NC(=O)C3COc4ccccc4O3)sc2C1 (stereo not given)	13%	-5%
Cc1cc(C(=O)OCC(=O)NC2CCS(=O)(=O)C2)c(C)n1-c1ccccc1 (stereo not given)	4%	-5%
CC(C)c1ccc(N(CC(=O)NC2CCCCC2)C(=O)CCC(=O)Nc2ccccn2)cc1	-28%	-4%
Cc1cc(-c2cc(-c3ccc(Cl)cc3)on2)nc(NCC2CC2)n1	-6%	20%
COc1cc2c(C#CCO)c(-c3ccc(C#N)cc3)oc(=O)c2cc1OC	x	-5%
CCN(C(=O)COC(=O)c1ccc2ccccc2n1)c1c(N)n(Cc2ccccc2)c(=O)[nH]c1=O	-2%	0%
Cc1ccc(C2CN(CCC(N)=O)C(=O)CO2)cc1 (stereo not given)	-15%	-2%
Cc1ccc(C(=O)N2CCN(C(=O)c3ccc(C)cc3)C2)cc1	1%	1%
CCOC(=O)C(C(=O)OCC)C(C)(C)/C(C)=N\Nc1ccc([N+](=O)[O-])cc1[N+](=O)[O-]	0%	-5%
CCOc1ccc(S(=O)(=O)N(CC(=O)O)c2ccccc2)cc1	2%	-4%
O=C(/C=C/c1ccc2c(c1)OCO2)NCCSCc1ccc(Cl)cc1Cl	9%	-10%
COC(=O)C1=C(C)OC(N)=C(C#N)C1c1cc(OC)ccc1OC (stereo not given)	2%	-8%
CCOCCCNC(=S)N1C2CCC1CC(NC(=O)Nc1ccc(C(=O)OCC)cc1)C2 (stereo not given)	-7%	-2%
O=C(COc1ccc2c(C(F)(F)F)cc(=O)oc2c1)NCc1cccs1	-11%	-2%
O=C(NC(c1ccccc1)c1ccccc1)N1CCN(CCO)CC1	4%	-2%
CS(=O)(=O)N(CC(=O)Nc1ccccc1C(=O)N1CCOCC1)c1cccc(F)c1	2%	1%
CCn1c(SCC(=O)O)nc2sc3c(c2c1=O)CCC3	2%	-24%

Fetched by compound from above (3):
SMILES	N370S GC mod	KAT2A inh
COC(=O)C1=C(C)OC(N)=C(C#N)C1c1cc(OC)ccc1OC (stereo not given)	2%	-8%
CCOc1ccc(S(=O)(=O)N(CC(=O)O)c2ccccc2)cc1	2%	-4%
Cc1ccc(C(=O)N2CCN(C(=O)c3ccc(C)cc3)C2)cc1	1%	1%

New compounds follow.
SMILES	N370S GC mod	KAT2A inh
O=C(CC1C(=O)NCCN1Cc1ccc(Cl)c(F)c1)NCC1CCOCC1 (stereo not given)	2%	-8%
Cc1ccc(-c2nnc(SCC(=O)Nc3nccs3)n2N)cc1	u	-1%
O=C(CC1(O)C(=O)N(Cc2cccc3ccccc23)c2ccccc21)c1cccnc1 (stereo not given)	x	-5%
O=C(CN1C(=O)NC2(CCCCCC2)C1=O)N1CCN(S(=O)(=O)c2ccccc2)CC1	6%	-9%
O=C(Cc1cccs1)NNC(=O)c1ccccc1Cl	x	-1%
CC(C)C(=O)Nc1c(-c2ccccc2)c(=O)c2ccccc2n1C	-10%	-7%
CCN(C[C@H]1N[C@@](C)(C(=O)OC)[C@H]2C(=O)N(Cc3ccccc3)C(=O)[C@@H]12)C(=O)c1ccc(F)cc1	x	1%
Cc1c(C(=O)Nc2ccc(F)c(C(F)(F)F)c2)sc2nc(-c3ccccc3)cn12	x	1%
C=CCNC(=O)/C(=C\c1cccc([N+](=O)[O-])c1)NC(=O)c1ccccc1	3%	-4%
COc1cccc(C(=O)NC2CCN(CC(=O)NCc3ccccc3OC)CC2)c1	2%	-4%
CCN1CCN(CCC(=O)Nc2cccc(OC)c2)CC1	11%	-1%
CC(c1ccccc1)C(NC(=O)OCC1c2ccccc2-c2ccccc21)C(=O)O (stereo not given)	-1%	-1%
O=C(Nc1ccc(F)cc1)Nc1cnccn1	7%	1%
Cc1ccc(N/C=C/C(=O)c2ccccc2)cc1C	-4%	-1%
C[C@]12CCC(=O)C=C1C=C[C@@H]1[C@@H]2CC[C@@]2(C)[C@H]1CC[C@@]21CCC(=O)O1	-7%	-16%
O=C(O)CCNS(=O)(=O)c1ccc2c(c1)OCCCO2	1%	-5%
CC(C)N(C(=O)[C@H]1C[C@H](CC(=O)NCCCn2ccnc2)C(=O)N2CCc3c([nH]c4cc(-c5ccco5)ccc34)[C@]12C)C(C)C	x	-8%
Cc1sc2ncn(CC(=O)NCCCC(=O)N3CCN(Cc4ccc5c(c4)OCO5)CC3)c(=O)c2c1C	3%	0%
CC(OC(=O)c1cc2c(s1)CCCCC2)C(=O)NC(N)=O (stereo not given)	11%	-20%
COc1cc(CNC(C)C)ccc1OCC(=O)Nc1cccc2ccccc12	-5%	-1%
COc1ccc(S(=O)(=O)NCC(c2ccco2)S(=O)(=O)c2ccc(C)cc2)cc1F (stereo not given)	x	-12%
CC1CCC(N2CCN(C(=O)c3ccccc3F)CC2)CC1 (stereo not given)	5%	-1%
Cn1c(SCc2cc(=O)n3cc(Br)ccc3n2)nnc1C1COc2ccccc2O1 (stereo not given)	-7%	-14%
Cc1cc(Br)ccc1SCC(=O)Nc1cccnc1	-10%	-3%
Cc1ccc(C(=O)NCC(=O)OCC(=O)Nc2ccc(Cl)cn2)cc1	x	1%
Cc1cccc(NC(=O)Cn2c(C(F)(F)F)nc3ccccc32)c1C	x	-7%
COC(=O)/C=C1\N/C(=N\c2nc(C)cc(C)n2)N(c2ccc(C)cc2)C1=O	-1%	-2%
CCOc1ccc(CCNC(=O)c2cccc(S(=O)(=O)N3CC(C)OC(C)C3)c2)cc1OCC (stereo not given)	-3%	-1%
Cc1ccc(S(=O)(=O)N(CC(=O)NCC2CCCO2)Cc2ccc(F)cc2)cc1 (stereo not given)	-1%	-2%
COc1ccccc1NC(NC(=O)c1ccccn1)C(Cl)(Cl)Cl (stereo not given)	5%	-3%
CC(=O)Nc1ccc(C(=O)COC(=O)CCS(=O)(=O)c2ccccc2)cc1	1%	-1%

Rewritten with bars between the fields: 3 of the compounds above
Molecule | N370S GC mod | KAT2A inh
Cc1cccc(NC(=O)Cn2c(C(F)(F)F)nc3ccccc32)c1C | x | -7%
CC1CCC(N2CCN(C(=O)c3ccccc3F)CC2)CC1 (stereo not given) | 5% | -1%
Cc1ccc(S(=O)(=O)N(CC(=O)NCC2CCCO2)Cc2ccc(F)cc2)cc1 (stereo not given) | -1% | -2%

Assay outcomes deposited in PubChem BioAssay by National Center for Advancing Translational Sciences (NCATS).
